# Bfl-1 A1 inh: inhibitors of the anti-apoptotic protein A1, read as caspase activation; MEF A1-2A-BIM cells, Caspase-Glo 3/7 luminescence, 3 h; percent of clofoctol response, vehicle zero; AID 2462; 330,000 tested, 0.066% active; caspase activation, % (test concentration not listed);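 active = over half of replicate activation scores above 10%, or exactly half above 10 with the replicate mean above 10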;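 note: wells of about 30 µL received 50 nL stock; many hits fall short of the cut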
# T cruzi inh: T. cruzi replication inhibition. T. cruzi beta-gal in NIH3T3, luminescence, 90 h. inhibition, % (no concentration beside the values). 300,000 tested, 1.4% active;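 active = mean inhibition across valid replicates above about 55%, limit read from the data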;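 note: signal also drops with host cell toxicity which is not excluded here; 0% = plate median of DMSO wells and 100% = zero luminescence signal; higher percent means less beta-gal luminescence so fewer parasites; stock transfer was 50 nL into about 50 µL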
# Beta2AR agonist: activates human beta-2 adrenergic receptor causing internalization | P07550 | Am2.2-beta2AR cells, FAP receptor internalization, flow cytometry; reference of the scale not given here | response, % (concentration not given with the values) | 340,000 tested, 0.43% active | AID 504454;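 active = response above a set limit, near 3 SD of response in nonfluorescent compounds, cut at about 42% in these data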;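 note: stock transfer was 100 nL into about 11 µL; a reference agonist was the positive control; negative values mostly stem from fluorescent compounds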
# Target sequence (P07550 whole entry, looked up): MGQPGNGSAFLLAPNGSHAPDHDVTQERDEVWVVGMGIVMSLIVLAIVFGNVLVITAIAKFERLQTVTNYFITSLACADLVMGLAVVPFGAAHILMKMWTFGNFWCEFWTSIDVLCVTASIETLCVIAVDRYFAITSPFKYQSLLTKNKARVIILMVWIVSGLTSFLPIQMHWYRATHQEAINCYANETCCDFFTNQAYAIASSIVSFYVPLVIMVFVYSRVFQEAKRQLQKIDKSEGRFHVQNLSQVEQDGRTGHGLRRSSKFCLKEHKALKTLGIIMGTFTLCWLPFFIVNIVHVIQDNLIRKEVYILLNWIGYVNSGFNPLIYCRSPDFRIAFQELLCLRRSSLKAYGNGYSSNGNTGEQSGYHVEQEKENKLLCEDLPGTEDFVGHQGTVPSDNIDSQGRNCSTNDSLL
# Ecoli rRNA inh: selective bacterial rRNA inhibition in E. coli. AID 720706. 350,000 tested, 1.6% active. E. coli WT GFP vs humanized-ribosome RFP mutants, fluorescence, 24 h; stronger effect = lower value; DMSO median 0, no signal -100. GFP signal change (wild-type ribosome), % (no concentration beside the values);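 active = significant combined selectivity score with lowered wild-type GFP, culture density cut under 30%, mutant RFP and density less affected; inactive = any of these conditions unmet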; note: one replicate is shown; some compounds called inactive have numbers as strong as hits
# Calb FLC: affects C. albicans growth with fluconazole | AID 1979 | 300,000 tested, 0.57% active | growth inhibition, % (no concentration beside the values) | C. albicans CaCi-2 (fluconazole-resistant clinical isolate) + fluconazole, Alamar Blue growth, 48 h;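 active = most replicates above 75%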;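 note: all wells also contain fluconazole at 8 µg/ml as a sub-toxic cotreatment; 0% = median of DMSO wells and 100% = median of geldanamycin control wells; wells of about 8 µL received 7.5 nL stock; the first replicate is given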
# Beta apoptosis: beta cell apoptosis inhibition; 300,000 tested, 0.8% active; protection from apoptosis, % (concentration not given with the values); AID 435005; INS-1E cytokine-induced death, ATP luminescence, 48 h; percent of positive-control rescue, neutral wells zero;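 active = all replicates at 75% or more, or half of them and the mean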;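 note: 0% = cytokine-treated negative control wells and 100% = positive control rescue; higher means more ATP so stronger rescue from cytokine killing; wells of about 40 µL received 100 nL stock; the first replicate is given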
# ALR inh: inhibitors of human sulfhydryl oxidase ALR; P55789; inhibition, % (no concentration beside the values); purified ALR, DTT oxidation, H2O2 HRP-luminol luminescence; AID 485317; 290,000 tested, 3.8% active;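 active = mean and each replicate at 75% or more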;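 note: stock transfer was 7.5 nL into about 7.5 µL; 0% = neutral wells and 100% = wells with inactivated enzyme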
# Target sequence (P55789 whole entry, looked up): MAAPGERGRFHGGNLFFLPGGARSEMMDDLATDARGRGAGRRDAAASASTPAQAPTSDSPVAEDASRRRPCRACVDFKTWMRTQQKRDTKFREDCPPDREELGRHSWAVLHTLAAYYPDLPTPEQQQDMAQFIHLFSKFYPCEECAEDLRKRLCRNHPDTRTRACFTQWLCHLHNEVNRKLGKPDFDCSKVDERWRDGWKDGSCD
# LANA-H2B inh: blocks KSHV LANA binding to histone H2A/H2B; Q9QR71; cell-free LANA-H2A/H2B peptide, fluorescence polarization; inhibition, % (test concentration not listed); 320,000 tested, 0.6% active; in the data active = inhibition mostly above about 10%, no sharp cut-off; inactive = mostly below about 6.7%;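 note: stock transfer was 7.5 nL into about 10 µL; 0% = median of vehicle wells and 100% = median of positive control wells; one replicate is shown; the record names a cut of 25% in any replicate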
# Ecoli rRNA inh OD600: also measured in Ecoli rRNA inh; calls as there; OD600 change, %; measured here: OD600 growth;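 optical density of the mix in the first replicate; 0 = DMSO median and -100 = no signal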
# Ecoli rRNA inh RFP: recorded beside Ecoli rRNA inh, whose call it bears; RFP signal change, %; measured here: RFP humanized mutant strains;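 first replicate; 0 = DMSO median and -100 = no signal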
# * hit, by the source's call; . = no result given. These rows are one share of the data (hit frequency here may not be typical).
SMILES,Bfl-1 A1 inh,T cruzi inh,Beta2AR agonist,Ecoli rRNA inh,Ecoli rRNA inh OD600,Ecoli rRNA inh RFP,Calb FLC,Beta apoptosis,ALR inh,LANA-H2B inh
Cn1c(C(O)c2ccc(Cl)cc2)nc(Cl)c1Cl (configuration not stated),1.7,-5,0,.,.,.,-17,-4,.,0.5
COc1ccc(CC(=O)NCC2CCCN(Cc3cccc(SC)c3)C2)cc1 (configuration not stated),0.6,42,2,17,13,2.5,-13,-4,.,-5.5
C=CCOc1ccc(C2C(C(=O)c3cccs3)=C(O)C(=O)N2c2nnc(C)s2)cc1 (configuration not stated),-5.4,3,2,.,.,.,1,-5,2,12
CC(=O)c1c(C)[nH]c(C(=O)N2CCN(c3cc(Cl)ccc3C)CC2)c1C,0.1,-10,-10,.,.,.,34,23,.,-0.3
CC1CCCCC1NC(=O)C1CCC(CNc2c(N3CCCCC3)c(=O)c2=O)CC1 (configuration not stated),-0.6,1,-13,12,8,-0.6,-5,-1,.,-1.4
CNC(=S)N1N=C2c3ccccc3CCC2C1c1ccccc1Cl (configuration not stated),1.0,-40,-5,3,0,0.5,-5,.,-3,-4.5
CN1CCN(c2nc(-c3ccccc3O)nc3ccccc23)CC1,0.1,43,4,-8,-9,-0.4,9,4,-13,-1.7
O=C(COC(=O)CNC(=O)c1cccc(F)c1)NCCC1=CCCCC1,0.5,-16,-2,3,3,6.6,-37,2,-13,-0.1
O=C(O)C/C(=C\c1cc(Cl)c2c(c1)OCO2)c1nc2ccccc2s1,0.2,-6,5,-16,-33,-6.1,30,.,12,2.8
C[C@@H](CSc1ccccc1)CN1CC[C@H](C(C)(C)C)CCC1=O,0.7,22,-10,-50,-77,-20,5,4,-4,-3.9
N=c1oc2ccccc2cc1C(=O)Nc1ccccc1,-13,2,11,8,-5,2.6,-4,5,.,6.1
COC(=O)c1cc(C(=O)NC(C)(C)CC(C)(C)C)cc([N+](=O)[O-])c1,1.9,15,4,0,7,2.7,-6,3,-5,0.8
O=C1C2C3C=CC(C4CC34)C2C(=O)N1/N=C/c1ccc([N+](=O)[O-])s1 (configuration not stated),-0.4,-14,-12,14,5,1.1,-10,0,-1,-1.6
O=C(Nc1ccc(Br)cc1F)c1ccc2c(c1)OCCO2,-17,-2,-2,1,0,-4.0,-9,-2,-1,-3.5
CC(C)C[C@H](NC(=O)N1CCN(c2ccccc2)CC1)C(=O)O,0.5,-11,2,5,13,-1.2,2,-6,38,5.5
C=CCn1c(SCc2cccnc2)nnc1-c1ccncc1,-0.3,12,-1,.,.,.,7,.,3,5.7
O=C(CSc1ncccn1)Nn1cnnc1,1.3,-16,-2,.,.,.,-3,-3,1,3.3
O=C(NCCc1ccccc1Cl)c1cc(COc2ccc(F)cc2F)on1,0.2,15,-13,.,.,.,23,0,-10,3.1
O=S(=O)(/N=C(/c1ccccc1)N1CCOCC1)c1ccc(F)cc1F,0.8,.,-3,3,7,-2.3,.,-6,-4,1.1
CC(OC(=O)c1ccccn1)C(=O)Nc1nc(-c2ccc(F)c(F)c2)cs1 (configuration not stated),-5.7,.,-4,-13,-15,-0.6,.,-1,6,2.5

# Of the compounds above, five have fluorine.
SMILES,Bfl-1 A1 inh,T cruzi inh,Beta2AR agonist,Ecoli rRNA inh,Ecoli rRNA inh OD600,Ecoli rRNA inh RFP,Calb FLC,Beta apoptosis,ALR inh,LANA-H2B inh
O=C(COC(=O)CNC(=O)c1cccc(F)c1)NCCC1=CCCCC1,0.5,-16,-2,3,3,6.6,-37,2,-13,-0.1
O=C(Nc1ccc(Br)cc1F)c1ccc2c(c1)OCCO2,-17,-2,-2,1,0,-4.0,-9,-2,-1,-3.5
O=C(NCCc1ccccc1Cl)c1cc(COc2ccc(F)cc2F)on1,0.2,15,-13,.,.,.,23,0,-10,3.1
O=S(=O)(/N=C(/c1ccccc1)N1CCOCC1)c1ccc(F)cc1F,0.8,.,-3,3,7,-2.3,.,-6,-4,1.1
CC(OC(=O)c1ccccn1)C(=O)Nc1nc(-c2ccc(F)c(F)c2)cs1 (configuration not stated),-5.7,.,-4,-13,-15,-0.6,.,-1,6,2.5

# 4 compounds out of the list, sorted by molar mass, rising:
SMILES,Bfl-1 A1 inh,T cruzi inh,Beta2AR agonist,Ecoli rRNA inh,Ecoli rRNA inh OD600,Ecoli rRNA inh RFP,Calb FLC,Beta apoptosis,ALR inh,LANA-H2B inh
O=C1C2C3C=CC(C4CC34)C2C(=O)N1/N=C/c1ccc([N+](=O)[O-])s1 (configuration not stated),-0.4,-14,-12,14,5,1.1,-10,0,-1,-1.6
O=C(Nc1ccc(Br)cc1F)c1ccc2c(c1)OCCO2,-17,-2,-2,1,0,-4.0,-9,-2,-1,-3.5
CNC(=S)N1N=C2c3ccccc3CCC2C1c1ccccc1Cl (configuration not stated),1.0,-40,-5,3,0,0.5,-5,.,-3,-4.5
C=CCOc1ccc(C2C(C(=O)c3cccs3)=C(O)C(=O)N2c2nnc(C)s2)cc1 (configuration not stated),-5.4,3,2,.,.,.,1,-5,2,12

# New compounds follow
SMILES,Bfl-1 A1 inh,T cruzi inh,Beta2AR agonist,Ecoli rRNA inh,Ecoli rRNA inh OD600,Ecoli rRNA inh RFP,Calb FLC,Beta apoptosis,ALR inh,LANA-H2B inh
O=C(Nc1ccc([N+](=O)[O-])cc1Br)c1cccnc1,-0.4,3,-3,14,1,-0.8,12,-5,-11,-1.2
O=C(N/N=C/c1ccco1)c1cc(=O)[nH]c2ccccc12,-0.7,-25,-4,23,20,1.2,-4,3,7,16*
CC(C)c1nc2oc3c(=O)[nH]cnc3c2c2c1COC(C)(C)C2,0.4,14,-7,14,11,4.1,1,0,.,0.9
CCOC(=O)c1[nH]c(C)c(C(=O)NCCC2=CCCCC2)c1C,-1.9,-1,-15,.,.,.,-7,-6,-8,5.1
O=C(Nc1ccccc1)Nc1nnc(-c2ccccc2)o1,0.1,-18,-1,.,.,.,5,-7,-4,-2.5
C/C(N)=C(/C#N)C(=O)COC(=O)CCS(=O)(=O)c1ccccc1,0.4,-10,8,.,.,.,-5,.,-3,-1.6
Cc1n[nH]c(=O)c2c(NC(=O)CSc3nncn3C(C)C)oc(C)c12,-0.2,.,-2,10,16,0.0,.,-5,7,-0.6
CC1Cn2c(CCc3ccccc3)nnc2S1 (configuration not stated),-0.3,-15,-1,.,.,.,8,0,-7,-3.7
COc1ccc(S(=O)(=O)N2CCC(NC(=O)c3cccnc3)CC2)cc1,-0.1,9,6,3,4,-1.7,18,1,1,4.5
COc1ccc(S(=O)(=O)N2CCOCC2)cc1NC(=O)CSc1nnc(C2CC2)n1N,0.0,10,3,9,3,-1.9,1,-6,5,1.3
O=C1OC(N2CCN(C(=O)c3ccco3)CC2)c2ccccc21 (configuration not stated),2.2,2,-1,.,.,.,10,-3,-8,-0.2
CC1CCCN(C(=O)Cn2nnc(-c3ccc([N+](=O)[O-])cc3)n2)C1 (configuration not stated),-0.4,4,1,7,10,-1.7,1,-1,-9,-2.3
Cc1ccc(C(=O)Nc2ccc(S(=O)(=O)N3CCCC3)cc2)s1,0.1,-1,-3,-6,-8,-5.6,-8,-3,.,-6.6
CCN(CC)S(=O)(=O)c1cccc(C(=O)N[C@H](C(=O)NCc2ccccc2F)C(C)C)c1,0.0,-12,4,.,.,.,-24,-3,2,-2.5
Cc1nc(N2CCOCC2)nc(Oc2ccccc2F)c1[N+](=O)[O-],0.8,0,10,-35,-34,-4.7,-2,-3,6,2.8
COc1ccc2c(c1)c(C(C)=O)c(C)n2CCc1ccc(OC)c(OC)c1,-0.4,17,16,-33*,-12*,-5.8*,8,-9,-13,5.2
C=CCOc1ccc(C=Nc2cccc(Cl)c2)c(O)c1,0.0,-17,4,7,8,-2.5,-6,-12,-7,1.9
Cc1cccc(CCN2CCN=C2N(C)C)c1,0.4,.,-6,.,.,.,.,-5,-3,-1.7
Nc1oc2ccc(F)cc2c(=O)c1C=O,0.3,-4,-4,.,.,.,-1,1,-5,-3.4
O=C(NCCNC(=O)c1ccco1)c1cccc(F)c1,1.0,-3,-15,.,.,.,21,-2,-14,2.3

# LANA-H2B inh, entries above that show a hit.
Compound,Beta2AR agonist,Ecoli rRNA inh,Ecoli rRNA inh OD600,Ecoli rRNA inh RFP,ALR inh,LANA-H2B inh
O=C(N/N=C/c1ccco1)c1cc(=O)[nH]c2ccccc12,-4,23,20,1.2,7,16*

# Later entries:
SMILES,Bfl-1 A1 inh,T cruzi inh,Beta2AR agonist,Ecoli rRNA inh,Ecoli rRNA inh OD600,Ecoli rRNA inh RFP,Calb FLC,Beta apoptosis,ALR inh,LANA-H2B inh
Cc1ccc(C)c(C(C)NC(=S)NC2CCCCC2)c1 (configuration not stated),0.5,-16,6,-53,-83,-14,-46,1,-11,1.3
CN(C)c1ccc(C(=S)Nc2ccccc2)cc1,-3.0,-5,-7,1,8,2.9,8,-1,.,-2.2
CC(C)(O)/C=C/C(=O)[C@](C)(O)C1[C@H](O)C[C@@]2(C)C3CC=C4C(C=C(O[C@@H]5O[C@H](CO)[C@@H](O)[C@H](O)[C@H]5O)C(=O)C4(C)C)[C@]3(C)C(=O)C[C@]12C (some centres not stated),-1.5,.,-3,7,-1,-0.9,.,4,-3,-3.7
Cc1cc(C)n2nc(CNS(=O)(=O)c3c(F)c(F)c(F)c(F)c3F)nc2n1,-1.1,1,10,14,4,5.2,-1,-35,54,3.0
C1=C(CCNc2nnnn2-c2ccccc2)CCCC1,-0.6,-5,-2,.,.,.,-10,-2,-24,0.5
O=C(NCCc1nc2ccccc2[nH]1)c1cc([N+](=O)[O-])cc([N+](=O)[O-])c1,-1.5,53,-15,.,.,.,14,13,-76,0.3
CN(CCn1ccnc1)C(=O)CC1C(=O)NCCN1Cc1ccccc1C(F)(F)F (configuration not stated),-0.4,.,-3,23,18,4.9,-10,-1,.,-1.3
CCOC(=O)c1[nH]c(C)c(C(=O)Nc2cccc(Cl)c2C)c1C,0.3,-2,1,.,.,.,44,6,-5,-1.5
CCCN1CCN(C(=O)c2cc(COc3ccc(F)cc3F)on2)CC1,-2.9,-7,-6,-6,-1,5.3,6,-9,-1,0.2
Cc1ccc(S(=O)(=O)NNC(=O)c2c(O)c3ccccc3[nH]c2=O)cc1,-1.5,-9,-11,3,0,-5.5,-8,-2,1,-1.1
Cc1ccc(C)c(OCC(=O)N2CCc3ccccc3C2)c1,-0.3,-1,-10,-17,-18,0.5,0,-10,-7,-4.3
O=C(Nc1cccnc1)C1CCCN(S(=O)(=O)c2ccccc2)C1 (configuration not stated),0.3,-3,-1,.,.,.,-7,-1,-1,-0.1
O=c1nc2ccccc2c2n1CC(CN1CCN(Cc3ccccc3)CC1)N2 (configuration not stated),0.6,2,-1,.,.,.,4,1,-11,-1.9
COC(=O)COc1ccc2c(-c3cccc([N+](=O)[O-])c3)cc(=O)oc2c1,0.2,-27,3,.,.,.,0,.,-9,-4.4
O=C(CCNc1ccc(Br)cc1)c1cccc([N+](=O)[O-])c1,1.2,1,7,-7,-5,1.7,-3,-1,.,-5.0
Cn1c(=O)c2c(nc(-n3ccnc3)n2Cc2ccc([N+](=O)[O-])cc2)n(C)c1=O,1.3,14,0,.,.,.,-1,-3,-3,8.2

# Screening results from PubChem BioAssay.
